GALR2 agonist – agonists of human galanin receptor 2 (GALR2). GALR2-expressing cells, agonist activation read-out. actives 0.48% (n = 140,000). activation, %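 (tested at 5 µM)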. O43603;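 active = above mean plus 3 SD of all compounds, about 5% in these data, not always enough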;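 also: 0% = vehicle buffer wells and 100% = reference agonist at full effect; tested in CHO reporter cells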
PKD1 kinase inh – PKD1 (human) kinase inhibition. Q15139. PKD1 kinase fluorescence polarization assay. inhibition, %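 (about 10 µM by stock and volumes)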. actives 0.056% (n = 200,000). AID 797;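 active = inhibition of 50% or more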;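 also: controls were vehicle for no effect and a reference inhibitor for full effect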
Target sequence (Q15139 whole entry, looked up): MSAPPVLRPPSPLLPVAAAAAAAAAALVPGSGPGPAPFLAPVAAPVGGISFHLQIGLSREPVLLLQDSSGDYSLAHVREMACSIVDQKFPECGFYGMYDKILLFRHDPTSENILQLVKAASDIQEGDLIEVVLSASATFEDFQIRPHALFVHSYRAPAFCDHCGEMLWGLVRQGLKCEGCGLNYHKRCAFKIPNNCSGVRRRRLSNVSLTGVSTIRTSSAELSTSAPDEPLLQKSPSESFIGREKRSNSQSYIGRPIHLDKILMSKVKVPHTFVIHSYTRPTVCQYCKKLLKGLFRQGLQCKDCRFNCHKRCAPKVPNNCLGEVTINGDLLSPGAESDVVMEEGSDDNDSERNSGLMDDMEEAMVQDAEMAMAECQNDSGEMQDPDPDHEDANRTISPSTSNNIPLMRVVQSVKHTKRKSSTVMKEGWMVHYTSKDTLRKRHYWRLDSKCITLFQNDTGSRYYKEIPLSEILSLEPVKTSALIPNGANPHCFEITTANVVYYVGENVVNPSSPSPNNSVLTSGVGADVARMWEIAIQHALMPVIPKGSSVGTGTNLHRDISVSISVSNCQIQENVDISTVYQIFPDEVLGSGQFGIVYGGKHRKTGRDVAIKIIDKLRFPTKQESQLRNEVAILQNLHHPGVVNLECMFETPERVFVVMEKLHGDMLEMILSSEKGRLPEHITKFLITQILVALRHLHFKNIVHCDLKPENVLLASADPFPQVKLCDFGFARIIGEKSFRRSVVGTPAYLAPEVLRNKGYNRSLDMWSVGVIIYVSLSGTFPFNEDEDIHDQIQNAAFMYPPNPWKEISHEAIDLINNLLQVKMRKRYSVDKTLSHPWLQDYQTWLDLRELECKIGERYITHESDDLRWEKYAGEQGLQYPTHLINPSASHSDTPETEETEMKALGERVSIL
RGS16-Gao – RGS16-Galphao interaction regulator (human). binding response (% of control), % at 10 µM. AID 1441. bead-based flow cytometry RGS16-Galphao binding, fluorescence; actives lie on both sides. actives 0.38% (n = 220,000). O15492+P09471;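 active = below 25% or above 175%, edge rows of some plates excepted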;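 also: Galphao activated by GDP with aluminum fluoride before binding; 100% = wells without compound and 0% = beads without RGS; some results beyond the cut were filed as inactive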
HSV replic up – HSV replication enhancement; actives 0.005% (n = 220,000); HSV replication augmentation in cells, fold increase; maximum fold increase; AID 1956;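 active = peak rise of 1.5-fold or more in the series; tested in PC3 cells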;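 also: first round at 10 µM; read as green reporter fluorescence; hits show the peak of a series up to 25 µM; 1 = signal of infected wells without compound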
INS promoter inh – TRM-6 insulin promoter activity inhibition | TRM-6 cells (human fetal islet line), insulin promoter-eGFP reporter, imaging; reporter expression induced with tamoxifen | actives 0.9% (n = 130,000) | AID 1273 | inhibition, % at 2 µM;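 active = inhibition above the mean plus 3 SD, with well images judged a real hit on visual review, cut at about 60% in these data, passing the limit was not always enough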
INS promoter inh cell count – also measured in INS promoter inh; calls as there; normalized cell count, %; measured here: cell count, toxicity; reference of the scale not given here;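 cells exposed to compound for 48 h; stained nuclei by imaging scaled within each plate; lower means fewer cells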
HSV replic up primary fold – second read-out of HSV replic up, no call of its own (marks repeat the call); fold increase; compound at 10 µM; measured here: primary screen fold increase 10 uM; tested in PC3 cells;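 GFP signal in the first replicate; 1 = infected wells without compound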
Active calls of the source: *. No enrichment for hits; overall some 1.2% were active at least once.

Screening Cc1ccccc1NC(=O)/C(C#N)=C/c1ccccc1C(F)(F)F returned GALR2 agonist -1.0, PKD1 kinase inh -4, RGS16-Gao 95, HSV replic up inactive and HSV replic up primary fold 1.
CCC(=O)N(CCC(c1ccc(C)cc1)c1ccco1)Cc1ccco1 (stereo not drawn) was read as RGS16-Gao 96, HSV replic up inactive and HSV replic up primary fold 0.95.
Screening O=C(CC1CCCCC1)NCc1cn2ccsc2n1 returned GALR2 agonist -0.3, PKD1 kinase inh -2, RGS16-Gao 105, HSV replic up inactive and HSV replic up primary fold 0.92.
Screening Cc1ccc2cc(CN(Cc3ccco3)C(=O)c3ccccc3)c(=O)[nH]c2c1C returned GALR2 agonist -1.7, PKD1 kinase inh 2, RGS16-Gao 102, HSV replic up inactive and HSV replic up primary fold 0.91.
`O=Cc1ccc(N2CCCCCC2)cc1` gave GALR2 agonist -2.9, PKD1 kinase inh -6, RGS16-Gao 100, HSV replic up inactive and HSV replic up primary fold 0.91.
`C=CCN(CC=C)Cc1c(C)[nH]c2ccc(C(=O)OCC)cc2c1=O` gave GALR2 agonist -1.1, PKD1 kinase inh 0, RGS16-Gao 104, HSV replic up inactive, INS promoter inh 46, INS promoter inh cell count 99 and HSV replic up primary fold 0.84.
CC(C)c1nc2ccccc2n1CC(O)COC1CCCCC1 (stereo not drawn) was read as PKD1 kinase inh 0, RGS16-Gao 109, HSV replic up inactive, INS promoter inh 21, INS promoter inh cell count 107 and HSV replic up primary fold 0.88.
Screening O=C(Nc1ccc(-n2nncc2-c2ccco2)cc1)c1ccc(F)cc1 returned GALR2 agonist -1.3, PKD1 kinase inh 2, RGS16-Gao 94, HSV replic up inactive, INS promoter inh -20, INS promoter inh cell count 121 and HSV replic up primary fold 0.84.
For COC(=O)c1cc(OC)c(OC)cc1NC(=O)c1ccc(OC)c(OC)c1 the results were GALR2 agonist 0.4, PKD1 kinase inh -9, RGS16-Gao 106, HSV replic up inactive, INS promoter inh 3, INS promoter inh cell count 89 and HSV replic up primary fold 0.91.
For Cc1cc(C)n(-c2ncnc3ccccc23)n1 the results were PKD1 kinase inh 1, RGS16-Gao 103, HSV replic up inactive and HSV replic up primary fold 1.5.
For Cc1ccccc1NC(=O)CSc1ccsc1[N+](=O)[O-] the results were GALR2 agonist 0.2, PKD1 kinase inh -11, RGS16-Gao 102, HSV replic up inactive, INS promoter inh 40, INS promoter inh cell count 134 and HSV replic up primary fold 0.87.
For Cc1cc[n+](CC(=O)c2ccc(NC(=O)c3ccccc3)cc2)cc1 the results were PKD1 kinase inh 4, RGS16-Gao 105, HSV replic up inactive, INS promoter inh -16, INS promoter inh cell count 120 and HSV replic up primary fold 0.99.
COCCN(CCOC)S(=O)(=O)c1ccc(C(=O)Nc2ccc(S(=O)(=O)Nc3nccc(C)n3)cc2)cc1 was read as PKD1 kinase inh -1, RGS16-Gao 99, HSV replic up inactive, INS promoter inh 18, INS promoter inh cell count 151 and HSV replic up primary fold 1.
For COc1cccc(/C=C/C(=O)Nc2cccc(C(C)=O)c2)c1OC the results were PKD1 kinase inh -1, RGS16-Gao 98, HSV replic up inactive and HSV replic up primary fold 0.94.
Screening CCOC(=O)CNS(=O)(=O)CCN1C(=O)c2ccccc2C1=O returned GALR2 agonist -0.5, PKD1 kinase inh -7, RGS16-Gao 96, HSV replic up inactive, INS promoter inh 11, INS promoter inh cell count 138 and HSV replic up primary fold 1.2.
Cc1cc(/C=N/n2cnnc2)c(C)n1-c1ccc(OCc2ccc(Cl)cc2Cl)cc1 was read as GALR2 agonist 0.2, PKD1 kinase inh 4, RGS16-Gao 103, HSV replic up inactive, INS promoter inh 0, INS promoter inh cell count 75 and HSV replic up primary fold 0.77.
Cc1ccc(S(=O)(=O)N(CC(=O)Nc2ccccc2C(=O)O)c2ccccc2C)cc1 was read as PKD1 kinase inh -2, RGS16-Gao 104, HSV replic up inactive, INS promoter inh 40, INS promoter inh cell count 149 and HSV replic up primary fold 0.9.
`O=C(NNS(=O)(=O)c1ccc(Cl)cc1)c1ccc(S(=O)(=O)N2CCCCC2)cc1` gave GALR2 agonist 0.2, PKD1 kinase inh 0, RGS16-Gao 112, HSV replic up inactive, INS promoter inh 7, INS promoter inh cell count 119 and HSV replic up primary fold 0.84.
Cn1c(=O)cc(OCC(=O)NCc2ccccn2)c2ccccc21 was read as GALR2 agonist -1.5, PKD1 kinase inh -15, RGS16-Gao 101, HSV replic up inactive, INS promoter inh 24, INS promoter inh cell count 84 and HSV replic up primary fold 0.86.
For COC(=O)c1ccc(NC(=S)NCCC2=CCCCC2)cc1 the results were GALR2 agonist -1.1, PKD1 kinase inh 2, RGS16-Gao 106, HSV replic up inactive, INS promoter inh -10, INS promoter inh cell count 128 and HSV replic up primary fold 0.92.
Cc1noc(C)c1COc1ccc(C(=O)OCC(=O)N2CC(=O)Nc3ccccc32)cc1 was read as GALR2 agonist -1.6, PKD1 kinase inh -3, RGS16-Gao 107, HSV replic up inactive, INS promoter inh -12, INS promoter inh cell count 55 and HSV replic up primary fold 0.86.
`Cc1ccc(/C=C2\CC(C)CC3=C2NC(=S)NC3c2ccc(C)cc2)cc1` (stereo not drawn) gave RGS16-Gao 96, HSV replic up inactive and HSV replic up primary fold 0.91.
`COc1ccc(OCC(=O)N/N=C/c2ccc(O[C@@H]3O[C@H](CO)[C@@H](O)[C@H](O)[C@H]3O)cc2)cc1` gave GALR2 agonist -1.9, PKD1 kinase inh -7, RGS16-Gao 97, HSV replic up inactive, INS promoter inh 11, INS promoter inh cell count 85 and HSV replic up primary fold 0.93.
For Cc1c(CN2CCCC(CO)(Cc3cccc(Cl)c3)C2)cnn1C (stereo not drawn) the results were PKD1 kinase inh -5, RGS16-Gao 105, HSV replic up inactive and HSV replic up primary fold 0.94.
For CCOC(=O)c1[nH]c(COC(=O)C2CC(=O)N(Cc3ccccc3)C2)c(C(=O)OCC)c1C (stereo not drawn) the results were GALR2 agonist -3.9, PKD1 kinase inh -10, RGS16-Gao 99, HSV replic up inactive, INS promoter inh -71, INS promoter inh cell count 151 and HSV replic up primary fold 0.95.
Clc1ccc(C2=NN(c3ccccc3)C(c3ccco3)C2)cc1 (stereo not drawn) was read as RGS16-Gao 100, HSV replic up inactive and HSV replic up primary fold 1.1.
`Cc1ccccc1-c1nc(CN2CCCC(C(=O)NCc3cccnc3)C2)c(C)o1` (stereo not drawn) gave GALR2 agonist -1.7, PKD1 kinase inh -6, RGS16-Gao 146, HSV replic up inactive, INS promoter inh -43, INS promoter inh cell count 113 and HSV replic up primary fold 0.9.
For CCS(=O)(=O)c1ccc2oc(SCC(=O)c3ccco3)nc2c1 the results were GALR2 agonist -2.4, PKD1 kinase inh -1, RGS16-Gao 99, HSV replic up inactive, INS promoter inh -58, INS promoter inh cell count 66 and HSV replic up primary fold 0.99.
For COc1ccc2nc(NC(=O)CSc3nc(C)cc(C)n3)sc2c1 the results were GALR2 agonist -0.4, PKD1 kinase inh 11, RGS16-Gao 109, HSV replic up inactive, INS promoter inh 59, INS promoter inh cell count 71 and HSV replic up primary fold 0.95.
Screening NC(=O)c1ccc(OCC(F)(F)C(F)(F)C(F)(F)C(F)(F)C(F)(F)C(F)F)cc1 returned GALR2 agonist -2.3, PKD1 kinase inh -3, RGS16-Gao 95, HSV replic up inactive, INS promoter inh -36, INS promoter inh cell count 65 and HSV replic up primary fold 0.8.
`CC1CCCC(NC(=O)c2cn(C)c3ccc(S(=O)(=O)N4CCCC4)cc3c2=O)C1C` (stereo not drawn) gave GALR2 agonist 0.8, PKD1 kinase inh -16 and RGS16-Gao 104.
`COc1ccc(-n2nc3c(=O)[nH][nH]c3cc2=O)cc1` gave PKD1 kinase inh 3, RGS16-Gao 104, HSV replic up inactive, INS promoter inh 0, INS promoter inh cell count 91 and HSV replic up primary fold 0.87.
Screening CCCNC(=O)CN1C(=O)NC2(CCCc3cc(OC)ccc32)C1=O (stereo not drawn) returned GALR2 agonist -1.5, PKD1 kinase inh -5, RGS16-Gao 253, HSV replic up inactive, INS promoter inh 16, INS promoter inh cell count 60 and HSV replic up primary fold 0.76.
For O=c1[nH]c(C2CCCN(S(=O)(=O)c3ccccc3)C2)nc2c1nnn2Cc1ccccc1F (stereo not drawn) the results were GALR2 agonist 0.0, PKD1 kinase inh -8, RGS16-Gao 94, HSV replic up inactive, INS promoter inh -37, INS promoter inh cell count 37 and HSV replic up primary fold 1.
Screening c1ccc(-c2nnc(OCc3cccnc3)c3ccccc23)cc1 returned PKD1 kinase inh 9, RGS16-Gao 98, HSV replic up inactive, INS promoter inh 6, INS promoter inh cell count 104 and HSV replic up primary fold 1.1.
`Cc1ccc(S(=O)(=O)c2c(C)cc(C)nc2Cl)cc1` gave GALR2 agonist -1.4, PKD1 kinase inh -5, RGS16-Gao -41, HSV replic up inactive, INS promoter inh -3, INS promoter inh cell count 71 and HSV replic up primary fold 0.98.
Screening O=C(NC1CCCCC1)NC1CCN(S(=O)(=O)c2ccc3c(c2)OCCO3)CC1 returned GALR2 agonist -1.2, PKD1 kinase inh -6, RGS16-Gao 94, HSV replic up inactive and HSV replic up primary fold 0.88.
For Cc1occc1-c1nnc(SCC(=O)c2ccc(F)cc2)o1 the results were GALR2 agonist -0.4, PKD1 kinase inh -8, RGS16-Gao 106, HSV replic up inactive and HSV replic up primary fold 0.99.
Screening Cc1c(O)ccc2c(O)c(NC(=O)c3ccc4c(c3)CCC(C)(C)O4)c(=O)oc12 returned RGS16-Gao 100, HSV replic up inactive and HSV replic up primary fold 1.1.
`Cc1ccc(NC(=O)CN(C)C2CCCCC2)cc1Br` gave PKD1 kinase inh -5, RGS16-Gao 117, HSV replic up inactive and HSV replic up primary fold 0.99.
Screening O=C(NC(=S)Nc1nc(-c2cccc([N+](=O)[O-])c2)cs1)c1ccccc1Cl returned PKD1 kinase inh -9, RGS16-Gao 101, HSV replic up inactive, INS promoter inh 57, INS promoter inh cell count 115 and HSV replic up primary fold 0.95.
O=S1(=O)N=C(N/N=C/c2ccccn2)c2ccccc21 was read as GALR2 agonist -1.2, PKD1 kinase inh 1, RGS16-Gao 111, HSV replic up inactive and HSV replic up primary fold 0.88.
`COc1ccc2[nH]c(=O)c(CN(C3CCCCC3)C(c3nnnn3Cc3ccco3)C(C)C)cc2c1` (stereo not drawn) gave GALR2 agonist -0.8, PKD1 kinase inh 5 and RGS16-Gao 93.
For O=S(=O)(c1cccc(S(=O)(=O)N2CCN(c3ncccn3)CC2)c1)N1CCOCC1 the results were GALR2 agonist 2.1, PKD1 kinase inh -6, RGS16-Gao 104, HSV replic up inactive, INS promoter inh 16, INS promoter inh cell count 105 and HSV replic up primary fold 1.1.
CCOC(=O)CC1=C(C(=O)OCC)C(c2cccs2)C(C#N)=C(N)O1 (stereo not drawn) was read as GALR2 agonist -0.8, PKD1 kinase inh -6, RGS16-Gao 96, HSV replic up inactive, INS promoter inh 62, INS promoter inh cell count 53 and HSV replic up primary fold 1.1.

High-throughput results as filed in PubChem BioAssay.
